HSD17B inhib = qHTS Assay for Inhibitors of HSD17B4, hydroxysteroid (17-beta) dehydrogenase 4; Potency, µM (titrated, usually from 57.1 µM), without a hit: top-dose activity change, negative = inhibition, most hits filed as inhibitors; recombinant HSD17B10, NADH fluorescence kinetic; many of its hits are not listed in these tables; AID 893, 2007; hit rate 7.6% among 75,000; 3-hydroxyacyl-CoA dehydrogenase type-2 (Homo sapiens), Q99714; active = well fitted inhibition curve with a large enough effect; inconclusive = small, poorly fitted or top-dose-only effect; inactive = no such curve, though single readings can be large or run the other way;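 also: the protocol describes HADH2 (HSD17B10) and not the HSD17B4 of the title; nearly all actives have a fitted effect of over 70% in size; most hits overshoot -100% by far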
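His-tagged E. coli-expressed HADH2 at 20 nM in 100 mM Tris-HCl pH 9.0 with 0.01 % Tween-20, preincubated 15 min with compound at room temperature. Reaction with 1 mM NAD+ and 90 uM beta-hydroxybutyryl coenzyme A; NADH fluorescence (360/450 nm) read kinetically over 4 min, last minus first point.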
Active calls of the source: *; ? = inconclusive; [ ] = remark or other dose. % is scaled to controls: 0 for no effect and ±100 for the full control effect; potency is read from the fitted curve at half-maximal effect.

SMILES | HSD17B inhib
CC1(C)CC(=O)C(C=NCCCO)=C(O)C1 | 3%
CC(CCc1ccccc1)C(=O)NO (stereo not drawn) | -6%
O=C(NCc1ccc2c(c1)OCO2)C1CCN(S(=O)(=O)c2ccc(Br)s2)CC1 | 10%
Cc1cccc(-c2nsc(SCC(=O)Nc3nccs3)n2)c1 | 5%
O=C(NC1CCCC1)C(c1cccs1)N(C(=O)c1ccno1)c1ccccc1 (stereo not drawn) | 5%
Cc1noc(C)c1-c1nc(N2CCNCC2)c2ccccc2n1 | -3%
CCNC(=O)NC1(C(=O)Nc2ccc3c(c2)CCC3)CCCCC1 | 14%
O=C(NCCCc1ccccc1)C1CCN(c2nnc(-n3cccc3)s2)CC1 | 1%
COc1cc2c(cc1OC)-c1c(OC)c(OC)cc3ccnc(c13)C2=O | 30%
CCCc1cc(=O)[nH]c(SCC(=O)N2CCN(c3ccccc3)CC2)n1 | 12%
COc1c(OC)c2occc2c2oc(=O)ccc12 | -3%
CCN1CCN(S(=O)(=O)Cc2ccccc2)CC1 | 2%
C[C@@H](C[N+](C)(C)C)OC(N)=O | -3%[25.6 µM]
CN(C)C(=O)N1CCCC(C(=O)NCc2ccc(F)cc2Cl)C1 (stereo not drawn) | -2%
O=C(Cn1cnc2ccccc2c1=O)NC1CCCc2ccccc21 (stereo not drawn) | -9%
CCNc1nc(NC(C)C)nc(Nn2cnnc2)n1 | 0%
N#Cc1nc(-c2ccccc2F)oc1NCc1cccc2c1OCO2 | 13µM*
O=C(O)C1C2C=CC3(CN(C/C=C/c4ccccc4)C(=O)C13)O2 (stereo not drawn) | 25µM*
CCN(CC)c1ccc(C2NC(=O)NC(C)=C2C(=O)Nc2ccccc2)cc1 (stereo not drawn) | -2%
CC(=O)OC1CC2C(C)(C)C(O)CCC2(C)C2CC[C@]3(C)C(=CC(=O)OC3c3ccoc3)C12C (stereo partly drawn) | 4%
CC(C)(C)c1ccc(NC(=O)CC2(C(F)(F)F)OCCO2)cc1 | 7%
C=CCn1c(=O)c2ccccc2n2c(SCc3c(C(=O)OCC)oc4ccccc34)nnc12 | 14%
COC(=O)C1(Cc2ccccc2)C2c3cc(C(=O)N4CCCC4)n(Cc4ccc(OC(F)(F)F)cc4)c3CC2CN1C(=O)c1ccccc1 (stereo not drawn) | 4%
CCOC(=O)c1ccccc1NC(=O)CN(c1ccccc1)S(=O)(=O)N(C)C | -14%
Cc1nc2sc(-c3ccccc3)cc2c(=O)n1-n1cccc1 | -10%

The listing continues:
SMILES | HSD17B inhib
CC1=C(C(=O)OCc2ccccc2)C(c2ccccn2)c2c(n(C)c(=O)n(C)c2=O)N1 (stereo not drawn) | -3%
Cc1c(NC(=O)COc2ncnc3c(Cl)cc(Cl)cc23)c(=O)n(-c2ccccc2)n1C | -1%
O=C(CCCCn1c(=O)[nH]c2ccccc2c1=O)N1CCN(c2ncccn2)CC1 | 0%
Cn1cnnc1SCC(=O)Nc1sccc1C#N | -17%
O=C(c1ccco1)N1CCN(C(c2ccccc2)c2nnnn2Cc2cccs2)CC1 (stereo not drawn) | -6%
CCCCNC(=O)c1cc(-c2ccc(OC)cc2)on1 | -12%
O=c1[nH]c(=O)n([C@H]2C[C@H](O)[C@H](CO)O2)cc1/C=C\Br | 6%
CCCN1C(=O)C2(/C(=C(\O)c3ccc4c(c3)OCCO4)C(=O)C(=O)N2CCCOC)c2ccccc21 (stereo not drawn) | -1%
COc1cc2cc(C)c(SCC(=O)N3CCOCC3)nc2cc1OC | -2%
Nc1nc(SCc2ccc3c(c2)OCCO3)n[nH]1 | 0%
CCOC(=O)c1sc2ccc(S(=O)(=O)N3CCOCC3)cc2c1N | -12%
c1ccc(Nc2nc(-c3ccoc3)nc3ccccc23)cc1 | ?
COc1ccc(C2C(C(=O)NCc3cccnc3)c3ccccc3C(=O)N2C)cc1OC (stereo not drawn) | ?
COc1cc(SC)ccc1C(=O)Nc1ccc2c(c1)OCCO2 | -8%
O=C(O)c1cccc(NC(=O)c2cccc(S(=O)(=O)N3CCCCC3)c2)c1 | 3%
c1cnc(N2CCN(Cc3ccc4c(c3)OCO4)CC2)nc1 | 9%
c1ccc(-c2n[nH]c3ccccc23)cc1 | -13%
CC(=O)NCCOc1ccc(C(=O)O)cc1 | ?
COc1cc2c(cc1OC)C(C(=O)O)C(c1ccc(C)o1)N(C)C2=O (stereo not drawn) | ?
CCCc1nc(-c2ccccc2O)n(-c2ccccc2)n1 | -4%
CCC(=O)N1c2ccc(S(=O)(=O)CCC(=O)N3CCN(c4ccccc4)CC3)cc2CC1C (stereo not drawn) | 1%
Cc1ccc(OCC(O)CNS(=O)(=O)c2ccccc2C(=O)N2CCCCC2)cc1 (stereo not drawn) | -2%
CC(C)O | 2%
CCCC1C2CN(C(C)=O)CC=C2C(C#N)=C(N)C1(C#N)C#N (stereo not drawn) | 462%[activator]
O=S(=O)(c1ccccc1)N1CCC[C@@]2(CCN(Cc3cc(C(F)(F)F)cc(C(F)(F)F)c3)C2)C1 | -8%

In a second layout: entries from further up
Structure	HSD17B inhib
CCCCNC(=O)c1cc(-c2ccc(OC)cc2)on1	-12%
O=c1[nH]c(=O)n([C@H]2C[C@H](O)[C@H](CO)O2)cc1/C=C\Br	6%
CCCN1C(=O)C2(/C(=C(\O)c3ccc4c(c3)OCCO4)C(=O)C(=O)N2CCCOC)c2ccccc21 (stereo not drawn)	-1%
COc1cc2cc(C)c(SCC(=O)N3CCOCC3)nc2cc1OC	-2%
Nc1nc(SCc2ccc3c(c2)OCCO3)n[nH]1	0%
CCOC(=O)c1sc2ccc(S(=O)(=O)N3CCOCC3)cc2c1N	-12%
c1ccc(Nc2nc(-c3ccoc3)nc3ccccc23)cc1	?
COc1ccc(C2C(C(=O)NCc3cccnc3)c3ccccc3C(=O)N2C)cc1OC (stereo not drawn)	?
COc1cc(SC)ccc1C(=O)Nc1ccc2c(c1)OCCO2	-8%
O=C(O)c1cccc(NC(=O)c2cccc(S(=O)(=O)N3CCCCC3)c2)c1	3%
c1cnc(N2CCN(Cc3ccc4c(c3)OCO4)CC2)nc1	9%
c1ccc(-c2n[nH]c3ccccc23)cc1	-13%
CC(=O)NCCOc1ccc(C(=O)O)cc1	?
COc1cc2c(cc1OC)C(C(=O)O)C(c1ccc(C)o1)N(C)C2=O (stereo not drawn)	?
CCCc1nc(-c2ccccc2O)n(-c2ccccc2)n1	-4%
CCC(=O)N1c2ccc(S(=O)(=O)CCC(=O)N3CCN(c4ccccc4)CC3)cc2CC1C (stereo not drawn)	1%
Cc1ccc(OCC(O)CNS(=O)(=O)c2ccccc2C(=O)N2CCCCC2)cc1 (stereo not drawn)	-2%

(continued)
SMILES | HSD17B inhib
COc1ccc(C(=O)NCC(c2cccnc2)N2CCN(c3ccccc3OC)CC2)cc1OC (stereo not drawn) | 3%
N[C@@H](Cc1cccnn1)C(=O)O | 3%[11.4 µM]
Cc1nn(-c2ccccc2)c2sc(C(=O)OCC(=O)N3CCCCC3)cc12 | ?
O=C(c1ccco1)N1CCN(C(c2ccccc2Cl)c2nnnn2Cc2cccs2)CC1 (stereo not drawn) | -30%
COc1ccc(S(=O)(=O)N(CC(=O)O)Cc2ccccc2)cc1OC | 7%
COc1cccc2sc(NC(=O)c3ccc(S(=O)(=O)N4CCOCC4)cc3)nc12 | -2%
CCN(CC)S(=O)(=O)c1ccc(-c2nnc(SCC(=O)N3CCOCC3)o2)cc1 | 9%
CCc1nc(SCc2cc(Cl)ccc2OC)n[nH]1 | -2%
Nc1ccc2c(c1)COc1ccccc1O2 | 13%
Cc1ccc(-c2nnn(CCC(=O)N3CCCCC3C)n2)cc1 (stereo not drawn) | 13%
CCCCC(C=O)CC (stereo not drawn) | 1%
Cc1ccc(C2C(C(=O)c3cccs3)=C(O)C(=O)N2CCN2CCOCC2)o1 (stereo not drawn) | -9%
O=C1CC(Sc2nnc(-c3ccccc3O)o2)C(=O)N1c1ccccc1 (stereo not drawn) | 40µM*
COc1ccc(NC(=O)c2cc(OC)c(OC)cc2OC)c(S(=O)(=O)N2CCOCC2)c1 | 3%
CCn1c(SCC(=O)NCc2ccco2)nc2c(c1=O)SC(C)C2 (stereo not drawn) | -5%
COc1c(F)c(F)c(C(=O)Nc2ccc3oc(-c4ccncc4)nc3c2)c(F)c1F | 25µM*
CC(=O)NCCOC(=O)Nc1cccnc1 | 4%
CCOc1ccccc1NC(=O)CN(c1nccs1)S(=O)(=O)c1ccc(N)cc1 | 5%
CC(NCc1ccco1)C(=O)N1CCc2ccccc2C1 (stereo not drawn) | -11%
Cc1ccc2nc(C(F)OC(F)(F)F)[nH]c2c1 (stereo not drawn) | -8%
Cc1ccc(S(=O)(=O)N2CCOCC2)cc1C(=O)NCc1cn2ccsc2n1 | 2%
N#CCC(=O)Nc1sc2c(c1C(N)=O)CCCC2 | 12%
Cc1ccc(Nc2nc(OC(C(F)(F)F)C(F)(F)F)nc(N3CCOCC3)n2)cc1 | 1%
O=C(NCc1ccco1)c1ccc(Br)s1 | -1%
Nn1c(SCC(=O)Nc2ccc(F)cc2)nnc1C1CCCCC1 | 6%

(further entries)
SMILES | HSD17B inhib
O=C(NCc1cccc(Cl)c1)c1ccc2c(c1)OCO2 | -11%
CC(=O)NS(=O)(=O)c1ccc(NC(=O)c2ccccc2F)cc1 | 7%
O=C(c1ccncc1)N1CCC2(CCN(Cc3cc(C(F)(F)F)cc(C(F)(F)F)c3)CC2)CC1 | 5%
COc1cccc(Oc2nc3ncn(Cc4ccccc4)c3c(=O)n2C)c1 | -10%
O=C(N1CCCC1)n1c(Cc2ccccc2)nc2ccccc21 | 1%
COC(=O)c1c(C)cc(OC(C)=O)c(C)c1OC(C)=O | 1%
CCc1nc(N2CCCC(C)C2)c2oc3ccccc3c2n1 (stereo not drawn) | -22%
COC(=O)[C@@]1(Cc2ccc(OC)cc2)[C@H]2c3cc(C(=O)N4CCCC4)n(Cc4ccc(S(C)(=O)=O)cc4)c3C[C@H]2CN1C(=O)c1ccccc1 | 4%
c1nc(NCC2(N3CCOCC3)CCCCC2)c2ccsc2n1 | -2%
CCOC(=O)c1ccccc1NC(=O)CSc1nnc(COc2ccccc2)n1CC | -4%
c1ccc(C2CC(c3cccs3)n3nnnc3N2)cc1 (stereo not drawn) | 14%
C=CCCCCCCCCCCCC(O)CC(O)COC(C)=O (stereo not drawn) (tested in a mixture with another compound) | -5%
Cc1cc(O)c(C(C)C)cc1NS(=O)(=O)c1ccccc1 | -15%
CC(C)CC(NS(=O)(=O)c1ccc2c(c1)oc(=O)n2C)C(=O)NC1CCCc2ccccc21 (stereo not drawn) | 12%
COc1ccc2[nH]c(=O)c(CN(Cc3cccs3)Cc3nnnn3C(C)(C)C)cc2c1 | ?
CS(=O)(=O)N1CCN(C(=O)Cc2cccs2)CC1 | -13%
COC(=O)c1cc(COc2ccc3oc(C)c(C(=O)OC)c3c2)c(C)o1 | 0%
CCc1ccc(-c2nnn(CCC(=O)OC)n2)cc1 | -12%
Cc1ccc(-c2nc(CS(=O)CC(=O)NCCN3CCCC3)c(C)o2)cc1 (stereo not drawn) | -7%
Cc1cc(NC(=O)CC2CCCC2)n(-c2nc3ccccc3[nH]2)n1 | ?
COc1cc2c(cc1OC)C(c1ccsc1)CC(=O)N2 (stereo not drawn) | 3%
C=C[C@](C)(O)CCC=C(C)C | -3%
O=C(COc1ccc(S(=O)(=O)N2CCCC2)cc1Cl)N1CCN(c2ccccc2)CC1 | -5%
CCCSc1nnc(Cn2c(=O)sc3ccccc32)n1-c1ccccc1 | -6%
CCCCN1CC(COc2ccccc2)OC1=O (stereo not drawn) | 3%

(list continues)
SMILES | HSD17B inhib
COc1ccc(-c2n[nH]c(C)c2-c2cnn(-c3ccccc3)c2)c(O)c1 | 2%
COc1ccc(CCNC(=O)CSc2cc(=O)[nH]c(N)n2)cc1OC | -3%
COc1ccccc1NC(=O)CCC(=O)Nc1ccccc1OC | 0%
CCOc1ccc(C2c3c(oc4ccccc4c3=O)C(=O)N2CCCN2CCOCC2)cc1 (stereo not drawn) | -4%
COCCN1C(=O)C(=O)/C(=C(/O)c2ccc(OC(C)C)cc2)C1c1cccnc1 (stereo not drawn) | -2%
CC1(C)Cc2cccc(OCC(=O)N3CCN(S(=O)(=O)c4ccccc4)CC3)c2O1 | -1%
COc1cc2c(cc1OC)-c1nnnn1C(C)(C)C2 | -4%
CC(=O)N1CCC2(CC1)CCN(c1ccccc1)CC2 | 2%
CCOC(=O)COc1nc(C)c(Br)c(OC)n1 | 18%
Cc1cc2cc(CN(Cc3ccc4c(c3)OCO4)C(=O)c3ccco3)c(=O)[nH]c2cc1C | ?
CCOC(=O)N1CCC(NC(=O)C2CCCCN2S(=O)(=O)c2ccc(F)cc2)CC1 (stereo not drawn) | 3%
COc1ccccc1CCn1c(=O)c(-c2cn(C)c3ccccc23)nc2cncnc21 | 59%[activator]
Brc1ccc(OCCOCCN2CCOCC2)cc1 | -1%
Nn1c(Cc2cccc3ccccc23)nnc1SCC(=O)NC1CCS(=O)(=O)C1 (stereo not drawn) | 0%
Cc1nnc(SCc2cccc(Oc3ccccc3)c2)n1N | 0%
Cc1ccc(NC(=O)CSc2nnc(-c3ccncc3)n2C)cc1C | -8%
COc1ccccc1C1CC(=O)NC(C)=C1C(=O)OCC1CCCO1 (stereo not drawn) | -1%
CS(=O)(=O)N(CC(=O)NCc1ccccn1)Cc1ccc(Cl)cc1 | -19%
COC(=O)c1c(NC(=O)CN2CCCC(C)C2)c2c(C)cccc2n1C (stereo not drawn) | -25%
CCN(Cc1ccccc1)C(c1cccs1)c1nnnn1C1CCCCC1 (stereo not drawn) | 3%
COc1ccc(S(=O)(=O)N2CCCC(C(=O)NCc3ccccn3)C2)cc1 (stereo not drawn) | 16%

An excerpt (hit frequency here may not be typical).
